Source: PubChem BioAssay
STK33 kinase inh: inhibitors of human STK33 kinase. Q9BYT3. purified STK33, MBP phosphorylation, ADP-Glo luminescence. actives 0.073% (n = 320,000). AID 2661. inhibition, % at 10 µM;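 active means inhibition at or above 25%, using the most active replicate where run in duplicate; inactive means inhibition below 25%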
Target sequence (Q9BYT3 whole entry, looked up): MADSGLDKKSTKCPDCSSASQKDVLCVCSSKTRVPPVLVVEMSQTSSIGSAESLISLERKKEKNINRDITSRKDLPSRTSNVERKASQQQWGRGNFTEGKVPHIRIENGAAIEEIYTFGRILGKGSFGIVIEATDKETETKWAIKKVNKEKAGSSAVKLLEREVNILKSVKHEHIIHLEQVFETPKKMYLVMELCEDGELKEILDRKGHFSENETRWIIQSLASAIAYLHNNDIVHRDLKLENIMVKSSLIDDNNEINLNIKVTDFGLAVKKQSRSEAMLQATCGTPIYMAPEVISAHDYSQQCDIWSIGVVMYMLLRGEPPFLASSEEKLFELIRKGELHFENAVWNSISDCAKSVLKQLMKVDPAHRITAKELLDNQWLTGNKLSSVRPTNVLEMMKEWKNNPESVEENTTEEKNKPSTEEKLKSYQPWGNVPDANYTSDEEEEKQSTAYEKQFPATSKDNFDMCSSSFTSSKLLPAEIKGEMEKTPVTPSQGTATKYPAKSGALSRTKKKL
* hit, by the source's call. A portion of the library, and most or all hits are left out here.

SMILES | STK33 kinase inh
CCOC(=O)c1sc(NC(=O)CSc2nc(C)cc(C)c2C#N)c(C#N)c1C | -0.6
CCOC(=O)c1c(Nc2nc(C)c(C(=O)NC)s2)sc(C)c1C | 0.1
COC(=O)c1sccc1NC(=O)c1ccc(Br)o1 | 0.7
CCCC(=O)Nc1nc2ccc(NC(=O)c3ccc(Br)o3)cc2s1 | -0.8
O=C(c1cccc(S(=O)(=O)Nc2cccc(C(F)(F)F)c2)c1)N1CCCCC1 | -1.7
O=C(Nc1nc2ccccc2n1CCN1CCCC1)c1ccc(Cl)cc1 | 0.3
Cc1ccc(Cl)c2c1NC(=O)C2(O)CC(=O)c1ccc(Br)cc1 (stereo not given) | -0.9
COc1cc(N)c(Cl)cc1C(=O)OCC(=O)NCC1CCCCC1 | 0.2
O=C(Nc1cccc(S(=O)(=O)N2CCCC2)c1)c1cc(-c2ccccn2)nc2ccccc12 | -1.7
O=C(c1cncc(Br)c1)N1CCc2ccccc2C1 | 0.3
Cc1ccc(-c2nnn(C(C)C(=O)N3c4ccccc4CCc4ccccc43)n2)cc1 (stereo not given) | -1.0
Cc1cc(S(=O)(=O)N2CCCC2)ccc1OCC(=O)Nc1ccccc1 | -0.3
Cc1ccc(NC(=O)CCCCCCCCCCC2COCCO2)c(C)c1 (stereo not given) | -0.4
COC(=O)C1=Cc2cc(OC)cc([N+](=O)[O-])c2OC1N1CCOCC1 (stereo not given) | -1.2
CCc1ccc(NC(=O)C2=CC(c3ccc(OC)cc3)=NS(=O)(=O)N2C)cc1 | -1.1
CN1CCN(c2ccc(NC(=S)NC(=O)/C=C/c3ccco3)cc2)CC1 | 1.8
CCOC(=O)CN(C(=O)CSc1nnc(C)n1-c1ccccc1)c1cccc([N+](=O)[O-])c1 | -1.0
COc1cccc(-n2c(COc3ccc(C)cc3)nnc2SCC(=O)O)c1 | -0.6
COc1cccc(N2CCN(C(=O)C3CCN(S(=O)(=O)c4cccs4)CC3)CC2)c1 | 0.1
COc1cccc(C(=O)Nc2ccc(S(=O)(=O)N3CCCCC3)cc2)c1OC | -1.7
O=C1c2ccccc2C(=O)C1(O)O | 0.0
CC1=CC(C)(C)NC(=S)N1c1ccccc1 | 0.5
COc1ccc(OCc2ccc(C(=O)O)cc2)cc1 | -1.2
Cc1ccc(NS(=O)(=O)c2cccc(C(=O)NCC3CCCO3)c2)cc1 (stereo not given) | -1.3
CN(Cc1ccco1)C(=O)Cn1c(=O)oc2cc(S(=O)(=O)NCc3ccccc3)ccc21 | -0.3
Cc1cc(C)c(N(C(=O)c2csnn2)C(C(=O)NC2CCCC2)c2ccncc2)c(C)c1 (stereo not given) | -2.4
Cc1ccccc1NC(=O)C1CCN(C2=NS(=O)(=O)c3ccccc32)CC1 | 0.2
C=CCN1CN=C(NS(=O)(=O)c2ccc(NC(C)=O)cc2)NC1 | -0.4
O=C(O)c1cccc(S(=O)(=O)Nc2ccccc2N2CCOCC2)c1 | -0.9
CCn1cc(CNC(=O)c2cc(-c3cc(OC)ccc3OC)nc3ccccc23)c(C)n1 | 0.1
O=C(Nc1ccccc1)c1cccc(=O)o1 | 1.0
CCc1ccccc1NC(=O)CCNC(=O)Cn1ccc2ccccc2c1=O | -1.1
O=C(Cn1c(=O)c2cccn2c2ccccc21)NCc1cccc(F)c1 | -1.2
O=C(c1ccncc1)N(c1ccc2oc3c(c2c1)CCCC3)S(=O)(=O)c1cccc([N+](=O)[O-])c1 | -1.5
O=C(Nc1ccncc1)C1CCCN(S(=O)(=O)c2cccc3cccnc23)C1 (stereo not given) | 1.8
O=C(C1CC2C=CC1C2)N1CCN(c2ccccc2)CC1 (stereo not given) | -0.9
C#CCOCCOCCOCCNc1nc(N2CCN(C(=O)[C@H](CCCCN)n3cc([C@@H](N)CO)nn3)CC2)nc(N2CCN(C(=O)[C@H](Cc3cc4ccccc4[nH]3)n3cc([C@@H](N)CC(C)C)nn3)CC2)n1 | 0.0
CCCn1nnc(NC(=O)c2cccc(OCC(C)C)c2)n1 | -0.7
COc1ccccc1C(=O)NCCC(=O)NCC(C)(C)N1CCOCC1 | 0.3
CC(C)C[C@H](CO)N(Cc1ccccc1)S(=O)(=O)N(Cc1ccccc1)[C@@H](CO)CC(C)C | -0.4
O=C(COc1ccccc1F)NNC(=O)c1cccc(-n2cccc2)c1 | -0.5
CCCN(CCC)CC(=O)Nc1cccc2c1OCO2 | -1.3
Cc1c(C(=O)OCC(=O)N(C)C2CCS(=O)(=O)C2)oc2ccc(Br)cc12 (stereo not given) | -1.5
O=C(NCc1cccs1)C1CC1 | -2.7
COc1ccccc1/C=C/C(=O)OCC(=O)NNC(=O)c1ccccc1 | -0.7
COc1ccc(C2C(C#N)=C(N)N(c3ncn[nH]3)C3=C2C(=O)CCC3)cc1 (stereo not given) | 0.0
CCOC(=O)c1sc(=NC(=O)c2ccc(Cl)s2)n(C)c1C | -3.1
CC1Cc2cc(S(=O)(=O)N3CCC(C(=O)N(C)Cc4ccco4)CC3)ccc2N1C(=O)C1CCC1 (stereo not given) | -0.2
O=C(N/N=C/C=C\c1ccccc1[N+](=O)[O-])c1ccccn1 | -1.2
CC1CCCN(C(=O)COC(=O)C2CCN(S(=O)(=O)c3ccc4c(c3)OCCO4)CC2)C1 (stereo not given) | 1.0
O=C1N=c2ccccc2=C1c1sc(=S)n(NC(=O)c2ccccc2)c1O | -0.2
CNC(=O)Oc1ccc2c(c1)[C@]1(C)CCN(C)[C@@H]1N2C | -3.2
COc1ccc(NC(=S)NCCC(c2ccccc2)c2ccccc2)c(OC)c1 | 0.8
CC(=O)CCSc1ncnc2sc(-c3ccccc3)cc12 | -2.2
CCOc1ccccc1N1CCN(C(=O)NCc2ccc(F)cc2)CC1 | 0.1
COC(=O)c1cc2c(-c3ccccc3)cc3ccccn3c-2c1C(=O)OC | 0.1
NC(=O)c1ccc(NC(=O)COC(=O)c2cc(S(=O)(=O)N3CCOCC3)ccc2N2CCCCC2)cc1 | 0.5
O=C(CSc1nccc(=O)[nH]1)N1CCc2ccccc2C1 | -1.2
CCS(=O)(=O)N1CCN=C1SCc1ccccc1 | -1.9
O=C(c1ccco1)N1CCN(C(=S)Nc2ccc(F)cc2)CC1 | 8.0
New compounds follow.
SMILES | STK33 kinase inh
Cc1cccc(C)c1NC(=O)c1cc(-c2ccccn2)nc2ccccc12 | 1.2
COC(=O)c1ccc(NC(=S)NNC(=O)CC(C)C)cc1 | 0.0
CCOC(=O)C1C(=O)OC(C)(C)C1C(C)C(=O)c1ccc(C)cc1 (stereo not given) | -0.8
O=C(NCCN=C1NS(=O)(=O)c2ccccc21)c1ccc2nccnc2c1 | -2.9
O=C(O)c1cc2c(N3CCC(Cc4ccccc4)CC3)ncnc2s1 | 0.4
Cc1cc(C(=O)N/N=C/c2c(C)nn(-c3ccccc3)c2C)c(C)o1 | 0.4
O=C(CCCN1C(=O)c2ccccc2C1=O)Nc1nc2ccccc2[nH]1 | -0.1
O=C(CSc1nnc(-c2ccco2)n1CC1CCCO1)NC1CCCC1 (stereo not given) | -0.5
O=[N+]([O-])c1cc2c(cc1/C=N/NS(=O)(=O)c1ccc(Br)cc1)OCO2 | 3.4
O=C(CC1Sc2ccccc2NC1=O)Nc1cccnc1 (stereo not given) | -1.1
Cc1ccc(C)c(-n2nnnc2SCC(=O)NCCC2=CCCCC2)c1 | 0.8
O=C(Cc1ccccc1)Nc1cc(C(=O)c2ccccc2)ccc1N1CCOCC1 | -0.5
Cc1cccc(NC(=O)c2ccc(NCC3CCCO3)c([N+](=O)[O-])c2)c1 (stereo not given) | -0.4
CCC1CCC(C(=O)NC(C(=O)NCCN2CCOCC2)C(C)C)CC1 (stereo not given) | -0.3
CS(=O)(=O)N1CCN(c2ccccc2NC(=O)CSc2ccc(Cl)cc2)CC1 | -1.8

Overlap with the part before: two entries, followed by the next part.
SMILES | STK33 kinase inh
CCC1CCC(C(=O)NC(C(=O)NCCN2CCOCC2)C(C)C)CC1 (stereo not given) | -0.3
CS(=O)(=O)N1CCN(c2ccccc2NC(=O)CSc2ccc(Cl)cc2)CC1 | -1.8
O=C(Cn1c(C(=O)NCC2CCCO2)cc2sccc21)c1ccccc1 (stereo not given) | 0.1
Cn1c(=O)c2c(nc(NCCCO)n2C/C=C/c2ccccc2)n(C)c1=O | -0.1
COc1ccc(S(=O)(=O)N2CCCN(CCC(=O)Nc3cccc(C(F)(F)F)c3)CC2)cc1 | -1.0
NC(=O)c1c(NC(=O)CSc2nnc(-c3ccco3)n2N)sc2c1CCCC2 | 2.8
CCC1C(=O)NCCN1Cc1nc(-c2ccc(C)s2)oc1C (stereo not given) | -0.3
O=c1[nH]c2ccccc2[n+]([O-])c1-c1ccccc1 | -0.8
CN(C)c1nc(Oc2ccc(=O)n(C)n2)nc(N2CCOCC2)n1 | -1.4
C[C@@H]1COC(=O)[C@H](Cc2ccc(F)cc2)C/C=C\C[C@@H](CC(=O)N[C@H](CO)Cc2ccccc2)C(=O)N1 | -0.1
Cc1cccc2c(-c3ccccc3)cc(=O)[nH]c12 | -1.1
CCn1ncc(S(=O)(=O)NCc2ccccc2Cl)c1C | 1.6
O=C(CCl)N(c1ccccc1)c1c[nH]c2ccccc12 | -0.2
Cc1nc(N2CCOCC2)c2c(C)c(C(=O)Nc3ccc(C(F)(F)F)cc3)sc2n1 | -1.0
O=C(O)c1cc(-c2ccco2)nc2ccccc12 | -2.7
CCOC(=O)C1=C(c2ccccc2)Nc2ncnn2C1c1cccc(OC)c1OC (stereo not given) | -0.2
COc1ccc(C(=O)NNC(=S)NC(=O)c2cccnc2)cc1 | -1.0

Four entries out of the list above, sorted by the value under STK33 kinase inh, highest first.
| Compound | STK33 kinase inh |
| --- | --- |
| O=C(CCl)N(c1ccccc1)c1c[nH]c2ccccc12 | -0.2 |
| CCC1C(=O)NCCN1Cc1nc(-c2ccc(C)s2)oc1C (stereo not given) | -0.3 |
| COc1ccc(C(=O)NNC(=S)NC(=O)c2cccnc2)cc1 | -1.0 |
| Cc1cccc2c(-c3ccccc3)cc(=O)[nH]c12 | -1.1 |

Going on with the list:
SMILES | STK33 kinase inh
Cc1cc(C)nc(N/N=C/c2ccccc2OCc2ccc(Br)cc2)n1 | -1.8
NCCNc1ccc(C(=O)N2c3ccccc3Sc3ccccc32)cc1[N+](=O)[O-] | -2.2
NC(=O)c1ccc(NC(=O)CCC(=O)N2CCN(S(=O)(=O)c3ccc(Cl)cc3)CC2)cc1 | -0.1
CCOc1cc(N2CCOCC2)c(OCC)cc1NC(=O)c1ccc(S(C)(=O)=O)cc1 | -4.3
CCN1C(=O)/C(=C2/C=Cc3ccccc3N2C)OC1=S | 0.5
COc1ccc(-c2nc3n(c(=O)c2C#N)CCS3)cc1OC | -0.3
Cc1c(CC(=O)N2CCN(C(=O)C3COc4ccccc4O3)CC2)c(=O)oc2cc(O)c(Cl)cc12 (stereo not given) | 0.0
CCOC(=O)COn1c(-c2cccc(Cl)c2)nc2ccc([N+](=O)[O-])cc21 | 7.9
COC(=O)C(Cc1ccc(O)cc1)NC(=O)NC12CC3CC(CC(C3)C1)C2 (stereo not given) | -0.8
COC(=O)c1ccsc1NC(=O)CN1CCN(c2ccc(F)cc2)CC1 | 0.7
O=C1CN(C(=O)COC(=O)/C=C/c2ccc(S(=O)(=O)N3CCOCC3)cc2)c2ccccc2N1 | 0.9
CCOC(=O)c1c(C)[nH]c(C)c1C(=O)CSc1nc2ccccc2n1CCC#N | -1.2
CCOc1ccccc1NS(=O)(=O)c1ccc(-n2cccn2)cc1 | -0.4
N#Cc1c(-c2ccccc2)nc(SCC(=O)Nc2nnc(C(F)(F)F)s2)[nH]c1=O | -0.8
Cc1ccc2c(c1)N(CC(=O)NCCCN1CCOCC1)C(=O)c1cccnc1O2 | -0.2
COCCN1C(=O)c2ccc(C(=O)Nc3cccnc3)cc2C1=O | -0.2
COC(=O)c1ccc(C(=O)OC)c(NC(=S)N2CCN(c3ccccc3F)CC2)c1 | -0.9
C=CCn1c(C)cc(-c2csc(NCC)n2)c1C | -0.9
CN(C(=O)NC1CC(=O)N(c2ccc3c(c2)OCCO3)C1)c1ccccc1 (stereo not given) | 1.1
O=C(CCCn1c(=O)c2sccc2n(Cc2cc(=O)n3ccccc3n2)c1=O)NCc1ccco1 | 1.5
CC(=O)Nc1ccc(NC(=O)C/C(C)=N/NC(=O)c2cccc3ccccc23)cc1 | -0.3
CSc1ccc(Cl)c(C(=O)OCC(=O)NC2CC2)c1 | -0.5
c1ccc(-c2cc(-c3nc4ccccc4[nH]3)c3ccccc3n2)cc1 | -0.4
Cc1c(NC(=O)Nc2ccc(Cl)c(Cl)c2)sc(=S)n1C | -1.3
NS(=O)(=O)c1ccc(-c2ccc(/C=C3\C(=O)Nc4ccccc43)o2)cc1 | 0.0
Cc1c(CN2CCCC(C(=O)Nc3cccc(-n4cccn4)c3)C2)cnn1C (stereo not given) | 0.7
O=C(CSc1nc(C(F)(F)F)cc(=O)[nH]1)N1CCCCCC1 | -0.1
CC(C)Cc1nc(SCc2cccnc2)c2c(=O)n(C)c(=O)n(C)c2n1 | 0.7
C#CCOCCOCCOCCNc1nc(N2CCN(C(=O)[C@H](CCC(=O)O)n3cc(C(N)[C@H](C)CC)nn3)CC2)nc(N2CCN(C(=O)[C@H](Cc3ccc(O)cc3)n3cc(C(N)[C@H](C)CC)nn3)CC2)n1 (stereo not given in full) | 2.1
CCOC(=O)c1cc(C)n(CCCN2CCOCC2)c1C | 1.0

Four compounds picked at random from those above, as already listed:
SMILES | STK33 kinase inh
O=C(CCCn1c(=O)c2sccc2n(Cc2cc(=O)n3ccccc3n2)c1=O)NCc1ccco1 | 1.5
COC(=O)c1ccc(C(=O)OC)c(NC(=S)N2CCN(c3ccccc3F)CC2)c1 | -0.9
CSc1ccc(Cl)c(C(=O)OCC(=O)NC2CC2)c1 | -0.5
Cc1c(NC(=O)Nc2ccc(Cl)c(Cl)c2)sc(=S)n1C | -1.3

Shown as comma-separated lines: 3 of the compounds above
mol,STK33 kinase inh
CS(=O)(=O)N1CCN(c2ccccc2NC(=O)CSc2ccc(Cl)cc2)CC1,-1.8
COc1ccc(C(=O)NNC(=S)NC(=O)c2cccnc2)cc1,-1.0
C[C@@H]1COC(=O)[C@H](Cc2ccc(F)cc2)C/C=C\C[C@@H](CC(=O)N[C@H](CO)Cc2ccccc2)C(=O)N1,-0.1
